gsp agonist – gsp mutant agonism. actives 0.13% (n = 340,000). AID 624287. Potency, µM (top dose mostly 76.9 µM), inactives show at the highest dose activation (cAMP increase), most hits filed as activators. gsp mutant cells, cAMP HTRF, 30 min; control for the full effect not named in the record; active = well fitted activation curve with a large enough effect; inconclusive = small, poorly fitted or top-dose-only effect, or another doubt; inactive = no such curve, though single readings can be large or run the other way; cell line not stated here;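 also: phosphodiesterase inhibitor Ro 20-1724 added with compounds to block cAMP breakdown; potency is read from the fitted curve at half-maximal effect; nearly all actives have a fitted effect of over 60% in size; about a fifth of the inactives were tested at one dose only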
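Cells in DMEM/10% FBS with G418 were pretreated with compounds in DMSO plus […] (300 uM stock) for 30 min at 37C. cAMP was measured by HTRF (cAMP-d2 plus anti-cAMP antibody-K) after 30 min at room temperature.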
ClpP mod – qHTS Assay for Activators of ClpP. actives 1.9% (n = 340,000). purified B. subtilis ClpP, FRET peptide cleavage, 20 min. Potency, µM (top dose mostly 57.5 µM), inactives show at the highest dose activity change, negative = active. ATP-dependent Clp protease proteolytic subunit (Bacillus subtilis (strain 168)), P80244; active = well fitted falling curve with a large enough effect; inconclusive = small, poorly fitted or top-dose-only effect; inactive = no such curve, though single readings can be large or run the other way; also: potency is read from the fitted curve at half-maximal effect; the source files actives as falling curves though it sought activators and does not explain the sign; nearly all actives have a fitted effect of over 65% in size; many hits overshoot -100%
Target sequence (P80244 whole entry, looked up): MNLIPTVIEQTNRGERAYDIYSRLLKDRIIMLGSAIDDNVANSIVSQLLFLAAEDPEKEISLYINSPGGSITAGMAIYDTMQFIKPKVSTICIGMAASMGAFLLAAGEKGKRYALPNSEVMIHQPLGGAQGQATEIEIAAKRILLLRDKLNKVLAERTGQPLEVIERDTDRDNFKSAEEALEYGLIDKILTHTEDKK
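Purified B. subtilis ClpP, 10 microg/mL final in Tris/HCl pH8 with KCl, BSA, glycerol and Tween-20, cleaved an Abz/nitrotyrosine-quenched decapeptide. Fluorescence (ex 320, em 430) was read at 0 and 20 min at room temperature. Delta was normalized to 5.8 microM ADEP and DMSO/no-enzyme controls.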
CtBP-E1A blk – blocks the CtBP interaction with E1A; actives 0.49% (n = 340,000); activity change, % (no concentration beside the values); AlphaScreen GST-E1A/His-CtBP binding, 1536-well; stronger effect = lower value; control for the full effect not named in the record; in the data active means activity change below about -65%; inconclusive means about -30% to -65%; inactive means above about -30%; also: % is scaled to controls: 0 for no effect and ±100 for the full control effect; compound concentration not given in the record
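Homogeneous bead-based format: GST-tagged E1A captured on glutathione donor beads, His-tagged CtBP on nickel acceptor beads; compounds precede bead addition by 2 h at 37 °C.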
Sfp inh – inhibitors of Bacillus subtilis Sfp phosphopantetheinyl transferase; Biochemical Sfp PPTase activity, qHTS; Potency, µM, inactives show max response, negative = inhibition, most hits filed as inhibitors; actives 3.5% (n = 310,000); AID 1490; active = well fitted inhibition curve with a large enough effect; inconclusive = small, poorly fitted or top-dose-only effect, or another doubt; inactive = no such curve, though single readings can be large or run the other way;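 also: the enzyme is Sfp with the accession as filed and its product quenches rhodamine fluorescence; potency is read from the fitted curve at half-maximal effect; 0% = enzyme reaction without inhibitor and -100% = no enzyme wells; top concentration of the series not given in the record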
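Sfp 15 nM + cpd, 15 min RT; start w/ rhodamine-CoA 5 uM, BHQ-2-YbbR 12.5 uM (final); 50 mM Hepes pH 7.6, 10 mM MgCl2, 0.01% NP-40, 0.01% BSA; read 525/598 nm at 0 and 30 min.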
TRPV1 potentiator – enhances activation of the human vanilloid receptor TRPV1. Q8NER1. actives 0.02% (n = 320,000). TRPV1-expressing cells, Fluo-8 calcium influx, capsaicin EC20 potentiation; host cell line not named in the record; control for the full effect not named in the record. potentiation, % at 8.33 µM; active means potentiation above 80%; inconclusive means 30% to 80%; inactive means below 30%; also: 0% is about no effect
Target sequence (Q8NER1 whole entry, looked up): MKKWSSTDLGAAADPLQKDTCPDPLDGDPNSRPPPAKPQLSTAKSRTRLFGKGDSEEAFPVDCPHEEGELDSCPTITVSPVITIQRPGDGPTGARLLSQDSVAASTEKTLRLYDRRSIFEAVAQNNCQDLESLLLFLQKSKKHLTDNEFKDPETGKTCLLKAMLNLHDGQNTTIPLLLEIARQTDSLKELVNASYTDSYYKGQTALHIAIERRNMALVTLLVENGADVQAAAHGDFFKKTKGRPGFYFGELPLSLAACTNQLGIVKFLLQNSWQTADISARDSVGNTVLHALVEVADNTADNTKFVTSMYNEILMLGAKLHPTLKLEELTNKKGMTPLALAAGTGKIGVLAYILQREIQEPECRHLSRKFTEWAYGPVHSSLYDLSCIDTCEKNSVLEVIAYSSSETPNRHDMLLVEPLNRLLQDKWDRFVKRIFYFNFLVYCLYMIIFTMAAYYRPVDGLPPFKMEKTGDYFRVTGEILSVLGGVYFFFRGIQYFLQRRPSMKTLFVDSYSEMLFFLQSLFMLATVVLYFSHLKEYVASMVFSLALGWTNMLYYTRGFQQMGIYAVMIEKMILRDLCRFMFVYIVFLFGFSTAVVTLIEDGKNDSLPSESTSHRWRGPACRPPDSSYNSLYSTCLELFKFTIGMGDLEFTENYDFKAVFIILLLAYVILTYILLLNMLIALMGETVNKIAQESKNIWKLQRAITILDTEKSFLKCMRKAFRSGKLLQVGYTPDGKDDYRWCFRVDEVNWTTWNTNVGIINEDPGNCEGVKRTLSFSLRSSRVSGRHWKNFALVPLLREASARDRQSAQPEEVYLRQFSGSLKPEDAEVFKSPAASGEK
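Cells expressing TRPV1 were dye-loaded with Fluo-8 and read kinetically: 10 s baseline, 3 min after compound (agonist portion), then 2 min after EC20 capsaicin (allosteric enhancer portion). Calcium-bound dye fluorescence at 480/520 nm.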
gsp antag – antagonizes gsp, the McCune-Albright syndrome mutation | Potency, µM (top dose mostly 76.9 µM), inactives show at the highest dose activity change, negative = inhibition, most hits filed as inhibitors | actives 0.4% (n = 340,000) | AID 624288 | gsp-mutant cells, cAMP HTRF, 30 min; control for the full effect not named in the record; active = falling curve of any shape with a large fitted effect; inconclusive = falling curve, mostly with a smaller effect; inactive = flat or rising curve; cell line not stated here;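 also: intracellular cAMP measured with PDE inhibitor Ro 20-1724 present during compound exposure; potency is read from the fitted curve at half-maximal effect; % is scaled to controls: 0 for no effect and ±100 for the full control effect; nearly all actives have a fitted effect of over 65% in size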
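HTRF cAMP read-out (cAMP-d2 plus anti-cAMP antibody-K in lysis buffer, 30 min RT). Before lysis, cells are exposed to compounds with […] for 30 min at 37C in DPBS containing Ca/Mg, BSA and Tween 20.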
Menin MLL FP FL – menin-MLL binding inhibition, fluorescein peptide; Fluorescence polarization, fluorescein-MLL peptide displacement from menin; FP activity change, % at 61.4 µM; 290,000 tested, under 10 active; AID 1766; inconclusive = falling polarisation curve, or a change in total fluorescence; inactive = total fluorescence flat and polarisation flat or rising; no compound was filed as active; the % refers to the polarisation; negative = inhibition;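 also: % of control where 0% means no effect; inhibitors lower the polarisation; unlabelled MLL peptide was the positive control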
Active calls of the source: *; ? = inconclusive; / = not tested or not shown; & = joins results of further samples; [ ] = dose if it differs, or a comment.

Results follow in this order: gsp agonist, gsp antag, ClpP mod, TRPV1 potentiator, Sfp inh, CtBP-E1A blk, Menin MLL FP FL
1. CC[C@@]1(C(=O)OC)N[C@H](CN(C)C(=O)c2ccccc2)[C@@H]2C(=O)N(C)C(=O)[C@@H]21
  /, 4%, -1.2%, /, /, 3, /
2. CN1CCN(S(=O)(=O)c2ccccc2)CC1
  -1%[15.4 µM], 4%, -2.0%&0.8%, 13, 8%, 5, 1.9
3. COc1ccc(S(=O)(=O)n2[nH]c(=O)c(CCO)c2C)c([N+](=O)[O-])c1
  25%, -13%, /, 4, 6%, 4, 2.5
4. Cc1nc(C(=O)N2CCc3c([nH]c4ccccc34)C2c2ccccn2)cs1 (stereo not given)
  -2%, 2%, /, 4, 18%, -4, -1.6
5. Cc1ccc(C2N=C(N)Nc3nc(=O)c4ccccc4n32)cc1 (stereo not given)
  -7%, 1%, 4.0%, -23, 20%, /, 5.7
6. O=C(COC(=O)C1C2CC3OC(=O)C1C3C2)Nc1cccc(C(F)(F)F)c1 (stereo not given)
  17%, -5%, /, 21, 4%, 7, -14
7. COCCCNC(=S)N1CCN(C)CC1
  -8%[15.4 µM], 9%, /, 0, -10%, 10, 1.9
8. O=S(=O)(Nc1nc2ccccc2nc1NCc1ccco1)c1ccc(Cl)cc1
  ?, -23%, ?, 9, 1%, 0, 6.4
9. CCOC(=O)N1CCC2(O)CCCCC2C1c1ccc(F)cc1 (stereo not given)
  12%, 6%, -1.7%, -3, 11%, 12, -0.3
10. CC(C)c1ccccc1NC(=O)c1cnccn1
  -19%, -5%, 1.2%, -2, -4%, 4, 1.8

More compounds.
Results follow in this order: gsp agonist, gsp antag, ClpP mod, TRPV1 potentiator, Sfp inh, CtBP-E1A blk, Menin MLL FP FL
11. COc1cc(OC)c(NS(=O)(=O)c2cn(C)cn2)cc1Cl
  15%, 13%, -1.4%, 27, 14%, 3, /
12. COc1ccc(CNCC(O)(c2ccc(F)cc2)c2ccc(F)cc2)cc1
  -7%, -7%, /, ?, 8%, 2, -4.3
13. O=C(COC(=O)c1ccc2ccccc2n1)c1ccccc1
  21%[15.4 µM], -14%, /, 19, 9%, -9, 3.8
14. CC(=O)c1ccc(N2CCN(CC(O)COC(c3ccccc3)c3ccccc3C)CC2)cc1 (stereo not given)
  -29%[15.4 µM], ?, /, 10, ?, 3, -2.1
15. O=c1ccc(C(F)(F)F)cn1Cc1cc(=O)n2cc(Br)ccc2n1
  ?, 6%, -9.4%, ?, 13%, /, 5.6
16. Cc1ccc(C)c(OCCN2CCOCC2)c1
  -3%, 3%, 2.7%, 0, 7%, 10, -0.6
17. Cc1ccc2cccc(NC(=O)C(F)(F)F)c2n1
  -2%, 1%, -1.5%, 5, -2%, 1, 0.8
18. COc1ccc(C(=O)n2cc(C(C)=O)c3ccccc32)cc1
  -72%[inhibitor], 18%, 0.7%, 5, -5%, /, -0.3
19. Cc1ccc(NC(=O)C(OC(=O)c2ccc(O)cc2)c2ccccc2)cc1Cl (stereo not given)
  -4%, -7%, 2.2%, -11, 27%, /, 1.4
20. COc1cc(OC)c(N(C)S(=O)(=O)c2cccc(C(=O)OCC(=O)NCc3ccco3)c2)cc1Cl
  3%[15.4 µM], /, /, -1, 8%, 0, 0.3

Additional records:
Results follow in this order: gsp agonist, gsp antag, ClpP mod, TRPV1 potentiator, Sfp inh, CtBP-E1A blk, Menin MLL FP FL
21. Cc1cc(N2CCN(c3cccc(C(F)(F)F)c3)CC2)n2nc(C)nc2n1
  9%, -9%, -17%, -11, 5%, -8, 1.7
22. CC(=O)Nc1ccc(N2C(=O)CSC2c2ccccc2)cc1 (stereo not given)
  9%, 1%, -0.4%, 4, 19%, 9, -6.7
23. CNc1nnc(-c2cc3ccccc3oc2=O)s1
  5%, 3%, ?, 0, 8%, -15, ?
24. CCN1CCN(C(CNS(=O)(=O)c2ccc(Cl)cc2)c2cccnc2)CC1 (stereo not given)
  -7%, 19%, 1.1%, 10, 9%, 8, -1.1
25. Cc1ccc(NC(=O)OCc2cc(-c3ccccc3)on2)cc1
  -1%[15.4 µM], /, /, -5, -22%, 15, -4.1
26. O=C(Cc1ccc(Cl)cc1)Nc1ccc2oc(=O)ccc2c1
  21%[15.4 µM], 4%, /, -17, 5%, 1, 3.4
27. CN1C[C@@H]2[C@@H]3C(=O)N(Cc4ccccc4)C(=O)[C@@H]3[C@](C)(C1=O)N2C(=O)c1ccc(Cl)cc1
  /, 0%, -1.9%, /, /, 6, /
28. O=C1CC(c2ccccc2)CC(O)=C1C=NCCN1CCOCC1 (stereo not given)
  14%, 3%, 0.2%, -5, 11%, 6, 2.0
29. O=C(O)CN1C(=O)SC(Nc2ccccc2)C1=O (stereo not given)
  5%, 5%, -1.8%, -7, 15%, -9, 1.5
30. COc1ccc(-c2nnc(CSc3nc4ccccc4c(=O)n3CC(C)C)o2)cc1OC
  -1%, 4%, -5.0%, 7, -7%, 5, 1.3

Remaining list, next part.
Results follow in this order: gsp agonist, gsp antag, ClpP mod, TRPV1 potentiator, Sfp inh, CtBP-E1A blk, Menin MLL FP FL
31. CN(C)c1nc(N)nc(CSc2ccccn2)n1
  2%, 7%, 0.7%, -4, 13%, 8, 2.5
32. O=C(NCCc1ccc(Cl)cc1)Nc1ccc(F)cc1
  -6%[15.4 µM], -5%, /, 3, 17%, /, -4.4
33. Cc1ccc(NC(=O)CSC(C)c2nc3ccccc3c(=O)[nH]2)cc1 (stereo not given)
  8%[15.4 µM], 7%, -6.2%, ?, 6%, 1, -13
34. CCN(CC(=O)Nc1cccc(C(C)=O)c1)S(=O)(=O)c1ccccc1
  -2%, 2%, /, -19, -11%, 2, -2.6
35. CCNC(=O)NC(=O)C(C)OC(=O)[C@H](C)NS(=O)(=O)c1c(C)c(C)cc(C)c1C (stereo not given in full)
  2%, -1%, -1.8%, 2, 27%, /, -1.6
36. COc1ccc(CNC(=O)C(C)NCc2ccc(S(N)(=O)=O)cc2)cc1 (stereo not given)
  -12%[15.4 µM], 10%, /, 25, 9%, 6, 1.0
37. O=C(NCC1CCCO1)c1ccc(OC2CCN(C(=O)C3CC3)CC2)cc1 (stereo not given)
  20%, 1%, 0.9%, -7, 19%, 0, /
38. COCCOC(=O)c1c(C)nc(SCC(=O)Nc2ccc(OC)cc2)c(C#N)c1-c1ccco1
  -2%, 21%, -0.9%, -7, -7%, -2, 6.1
39. Nc1[nH]c(=S)nc2nc(-c3ccccc3)c(-c3ccccc3)nc12
  8%[15.4 µM], /, /, 10, 22%, 24, -5.7
40. CNc1nc(N)nc(OC(C(F)(F)F)C(F)(F)F)n1
  16%, -8%, 0.2%, 21, 13%, 15, 2.7

Next section.
Results follow in this order: gsp agonist, gsp antag, ClpP mod, TRPV1 potentiator, Sfp inh, CtBP-E1A blk, Menin MLL FP FL
41. COCCNC(=O)CNC(c1ccccc1)c1ccccc1
  /, /, /, -4, 45µM*, /, -11
42. Cc1ccc(NC(=O)CSc2nnc([C@H](C)NC(=O)OC(C)(C)C)o2)c(C)c1
  6%[15.4 µM], 9%, /, -38, 2%, -2, -3.5
43. COc1ccc(C)cc1NC(=O)COC(=O)C1COc2ccccc2O1 (stereo not given)
  -16%, 5%, 0.3%, /, /, /, /
44. Cc1ccccc1CN1CCN(C(=O)CC(C)C)CC1
  10%, 13%, 1.0%, -28, 79µM*, /, 2.7
45. Cc1ccc(S(=O)(=O)NCC(c2ccccc2)N2CCN(CCC#N)CC2)cc1 (stereo not given)
  -35%[inhibitor], 1%, 1.7%, -5, 4%, 2, 3.1
46. NC(=O)c1ncn([C@@H]2O[C@H](CNCc3ccccc3C#Cc3ccccc3)[C@@H](O)[C@H]2O)n1
  /, 4%, -4.1%, /, /, -1, /
47. CCCCCN(C(=O)COC(=O)c1ccc(C)cc1)c1c(N)n(CCCC)c(=O)[nH]c1=O
  1%, 1%, -0.7%, 10, /, -9, /
48. O=c1[nH]cnc2c1N=C(c1cccc([N+](=O)[O-])c1)CC(c1ccccc1)N2 (stereo not given)
  20%, -2%, /, -12, -19%, -3, -4.6
49. NS(=O)(=O)c1cccc(NC(=O)CC23CC4CC(CC(Br)(C4)C2)C3)c1
  -15%, -2%, /, 3, 20%, -2, -2.4
50. CC1CC(C)CN(CCOc2cccc(Cl)c2Cl)C1 (stereo not given)
  23%, 10%, 0.0%, -12, -33%, 6, 3.7

Next entries follow.
Results follow in this order: gsp agonist, gsp antag, ClpP mod, TRPV1 potentiator, Sfp inh, CtBP-E1A blk, Menin MLL FP FL
51. Cn1c(-c2ccccc2)c[n+]2c1CCCCC2
  -1%[15.4 µM], 6%, -1.2%, 0, 9%, -4, -7.0
52. N#Cc1ccc2c(=O)n(-c3ccccc3)sc2c1
  10%, /, -1.9%, /, /, -11, /
53. CCN1CCN(CCNC(=O)c2ccc3c(c2)N(Cc2cccc(Cl)c2)C(=O)c2ccccc2S3=O)CC1 (stereo not given)
  ?, -1%, -1.1%, 6, 10%, -16, -7.1
54. O=C(Nc1ccc(F)c(Cl)c1)c1ccc2c(=O)n3c(nc2c1)CCCCC3
  -24%, ?, 2.2%, -5, 5%, -3, 3.4
55. COc1ccc(CNC(=O)C2CCN(S(=O)(=O)N3CCCCC3)CC2)cc1
  -36%[inhibitor], 3%, -0.5%, 1, 6%, -10, -8.3
56. COc1ccc(C(=O)NNC(=O)c2cccc(S(=O)(=O)N3CCOCC3)c2)cc1
  -30%, 9%, /, /, /, 5, /
57. N#Cc1c(NCCN)nc(-c2ccco2)c2c1CCCC2
  -22%, 2%[15.4 µM], 8.9µM*, 7, -2%, 14, -2.8
58. Cc1ccc(Cn2nc(C)cc2C(=O)Nc2ccc(Cl)cc2)cc1
  -8%[15.4 µM], -4%, /, -11, 17%, 8, 3.1
59. CC1(C)COC(c2cccn2Cc2ccccc2Cl)=N1
  0%, ?, -1.4%, 0, 13%, -15, 2.7
60. CCCCCc1nc2c(=O)n(C)c3ccccc3c2o1
  -1%, -12%, -15%, 10, -8%, -19, 3.8
61. CN1CCN(C(=O)CN(c2cccc(Br)c2)S(=O)(=O)c2ccccc2)CC1
  -4%, -4%, -0.3%, -4, 10%, 5, -3.1
